# PKD1 inh: inhibitors of human PKD1 kinase; PKD1 kinase fluorescence polarization assay; inhibition, %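 (about 10 µM by stock and volumes)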; 200,000 compounds, 0.056% hits; AID 797;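 active = inhibition of 50% or more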;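 also: controls were vehicle for no effect and a reference inhibitor for full effect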
# RGS16-Gao: RGS16-Galphao interaction regulator (human) | O15492+P09471 | bead-based flow cytometry RGS16-Galphao binding, fluorescence; actives lie on both sides | binding response (% of control), % at 10 µM | 220,000 compounds, 0.38% hits;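 active = below 25% or above 175%, edge rows of some plates excepted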;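 also: Galphao activated by GDP with aluminum fluoride before binding; 100% = wells without compound and 0% = beads without RGS; some results beyond the cut were filed as inactive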
# Target sequence (O15492 whole entry, looked up): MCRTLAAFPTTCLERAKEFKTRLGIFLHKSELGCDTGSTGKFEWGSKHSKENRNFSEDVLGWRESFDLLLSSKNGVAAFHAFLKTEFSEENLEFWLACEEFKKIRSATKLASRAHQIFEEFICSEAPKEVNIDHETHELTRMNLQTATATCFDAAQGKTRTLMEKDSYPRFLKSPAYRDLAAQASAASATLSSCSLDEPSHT
# Target sequence (P09471 whole entry, looked up): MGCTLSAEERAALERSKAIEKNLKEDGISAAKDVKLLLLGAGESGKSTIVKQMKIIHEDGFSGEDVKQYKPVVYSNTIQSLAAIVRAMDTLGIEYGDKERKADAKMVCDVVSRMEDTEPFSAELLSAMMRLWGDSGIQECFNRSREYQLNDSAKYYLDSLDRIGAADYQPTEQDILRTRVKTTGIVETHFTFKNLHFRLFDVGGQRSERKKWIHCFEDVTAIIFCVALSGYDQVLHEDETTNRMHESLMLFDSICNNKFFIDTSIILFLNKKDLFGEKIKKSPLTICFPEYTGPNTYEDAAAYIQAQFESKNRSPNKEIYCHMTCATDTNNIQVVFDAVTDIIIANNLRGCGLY
# GALR2 ag: agonists of human galanin receptor 2 (GALR2). O43603. GALR2-expressing cells, agonist activation read-out. activation, %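 (tested at 5 µM)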. 140,000 compounds, 0.48% hits;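 active = above mean plus 3 SD of all compounds, about 5% in these data, not always enough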;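 also: 0% = vehicle buffer wells and 100% = reference agonist at full effect; tested in CHO reporter cells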
# Target sequence (O43603 whole entry, looked up): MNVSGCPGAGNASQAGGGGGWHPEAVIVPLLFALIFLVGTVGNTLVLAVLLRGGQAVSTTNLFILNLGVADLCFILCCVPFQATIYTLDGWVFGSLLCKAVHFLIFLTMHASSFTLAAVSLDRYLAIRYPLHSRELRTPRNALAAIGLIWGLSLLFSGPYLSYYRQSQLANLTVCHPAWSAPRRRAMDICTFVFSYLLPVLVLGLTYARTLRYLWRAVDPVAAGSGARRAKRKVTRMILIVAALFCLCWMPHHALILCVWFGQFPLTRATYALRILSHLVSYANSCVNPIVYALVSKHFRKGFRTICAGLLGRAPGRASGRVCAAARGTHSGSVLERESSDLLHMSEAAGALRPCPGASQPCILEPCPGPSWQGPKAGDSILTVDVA
# INS promoter inh: TRM-6 insulin promoter activity inhibition; 130,000 compounds, 0.9% hits; inhibition, % at 2 µM; TRM-6 cells (human fetal islet line), insulin promoter-eGFP reporter, imaging; reporter expression induced with tamoxifen;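 active = inhibition above the mean plus 3 SD, with well images judged a real hit on visual review, cut at about 60% in these data, passing the limit was not always enough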
# HSV augment: increases HSV replication in cells; HSV replication augmentation in cells, fold increase; maximum fold increase; 220,000 compounds, 0.005% hits;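 active = peak rise of 1.5-fold or more in the series; tested in PC3 cells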;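 also: first round at 10 µM; read as green reporter fluorescence; hits show the peak of a series up to 25 µM; 1 = signal of infected wells without compound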
# INS promoter inh cell count: second read-out of INS promoter inh, no call of its own (marks repeat the call); normalized cell count, %; measured here: cell count, toxicity; reference of the scale not given here;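 cells exposed to compound for 48 h; stained nuclei by imaging scaled within each plate; lower means fewer cells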
# HSV augment primary fold: also measured in HSV augment; calls as there; fold increase; compound at 10 µM; measured here: primary screen fold increase 10 uM; tested in PC3 cells;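 GFP signal in the first replicate; 1 = infected wells without compound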
# An asterisk follows results filed as active; i = inactive; nt = no result given.
mol	PKD1 inh	RGS16-Gao	GALR2 ag	INS promoter inh	INS promoter inh cell count	HSV augment	HSV augment primary fold
CC(=O)c1cccc(NS(C)(=O)=O)c1	3	100	nt	14	167	nt	nt
CC(=O)c1c(C)[nH]c(C(=O)Nc2cccc(S(=O)(=O)N(C)C)c2)c1C	-7	101	nt	-67	92	i	0.87
Cn1cc(CCC(=O)N2CCCC(C(=O)c3ccc(C(C)(C)C)cc3)C2)cn1 (centres undefined)	0	100	nt	nt	nt	i	0.89
Cc1ccc(S(=O)(=O)Nc2ccc(-c3nnc(SCc4ccccc4Cl)o3)cc2)cc1	-21	107	-1.0	-10	65	i	0.92
O=C(Nc1ccccc1-c1nnn(CC(=O)N2CCOCC2)n1)c1ccccc1F	12	104	nt	0	126	i	0.96
COc1ccc(S(=O)(=O)N(CCc2ccccc2)CC(=O)O)cc1C	-3	78	-3.9	-17	82	i	1.1
O=C(O)CCC(=O)CCC(=O)c1ccc(Cl)cc1	-6	95	-1.2	-71	114	i	0.75
CC(C)Cn1c(SCC(=O)N2CC(=O)Nc3ccccc32)nc2ccccc21	-4	31	1.2	-31	123	i	0.74
Cc1ccc(NC(=O)NCCc2ccc(S(N)(=O)=O)cc2)cc1	-8	102	-2.7	nt	nt	i	0.75
c1ccc2c(c1)ncn2CCN1CCCCC1	0	93	-0.7	-450	27	i	1.1
CC(C)(C)c1cc(NC(=O)COC(=O)c2ccc3c(=O)n4c(nc3c2)CCC4)n(-c2ccccc2)n1	6	103	-0.3	43	99	i	0.92
CC(=O)N1CCN(C(=S)Nc2ccc(Oc3ccccc3)cc2)CC1	-1	102	nt	0	115	i	1.1
O=C(CN(c1ccc(F)cc1)S(=O)(=O)c1ccccc1)NCCSC1CCCCC1	-6	97	-1.4	29	102	i	0.77
O=C(NC1CCCCCC1)c1cc(S(=O)(=O)N2CCOCC2)ccc1N1CCCCC1	2	101	-2.1	10	135	i	0.83
Cc1nn(CCOc2ccccc2)c(=O)n1-c1ccccc1	-3	90	-1.4	-43	87	i	0.92
CN(C)N=Nc1ccc2nc[nH]c2c1	nt	96	nt	nt	nt	i	1.3
N#CC1(C#N)C(c2ccccc2)OC23CCCCCC2C1(C#N)C(=N)O3 (centres undefined)	2	106	0.2	nt	nt	i	1.1
Cc1cc(NS(=O)(=O)c2ccc(OCCNS(C)(=O)=O)cc2)no1	8	105	-1.0	nt	nt	i	0.71
CC1=C/C(=N\OC(=O)/C=C/c2ccccc2)C(C)=CC1=O	6	106	-0.9	-14	124	i	0.91
CCOC(=O)N1CCN(Cc2cn[nH]c2-c2cccc3ccccc23)CC1	-9	98	nt	nt	nt	i	0.94
CN(C)CCCNc1c(C(=O)O)cnc2c1cnn2C	-7	95	-2.2	-32	150	i	1.1
CC1CCC(C(C)C)C(OP(=O)(c2ccc(N(C)C)cc2)C(O)c2cccnc2)C1 (centres undefined)	-1	103	0.0	0	113	i	0.9
CC(C)Cn1c(N)c(C(=O)NCc2cccs2)c2nc3ccccc3nc21	-2	107	30*	-48	100	i	0.87
COC(=O)c1ccc(COc2cccc3c2CCN(Cc2ccccc2)C3=O)o1	-10	104	0.5	nt	nt	nt	nt
O=C(CN(C(=O)c1cc2c(s1)CCC2)C1CCCC1)NCc1cccs1	9	103	-0.4	nt	nt	i	0.9
C#CCOCCOCCOCCNc1nc(N2CCN(C(=O)[C@H](CCC(=O)O)n3cc(C(N)CO)nn3)CC2)nc(N2CCN(C(=O)[C@H](CCC(=O)O)n3cc(C(N)[C@H](C)CC)nn3)CC2)n1 (some centres undefined)	9	103	nt	nt	nt	nt	nt
C/C(=N\NC(=O)c1cc(-c2cccnc2)nc2ccccc12)c1ccccc1O	8	98	-1.1	0	144	i	0.64
O=C(NCc1ccco1)c1ccc(N2CCOCC2)c([N+](=O)[O-])c1	-6	102	nt	14	124	i	0.86
CCOCN(C(=O)Cn1c(COC)nc2ccccc21)c1c(C)cccc1CC	3	100	-2.1	-47	91	i	0.89
Cc1ccc2c(NC(=O)C3CC3)c(C)ccc2n1	9	84	-1.3	0	126	i	1.1
CCCC(=O)NCCc1ccc(S(N)(=O)=O)cc1	-7	106	-2.5	-3	90	i	0.83
COc1ccc(C2c3c4c(n(C)c3CCN2C)CCN(C)C4c2ccc(OC)cc2)cc1 (centres undefined)	-8	101	-1.2	38	72	i	0.78
CCOC(=O)N1CCC(NC(=O)C2CCCN(S(=O)(=O)c3ccc4c(c3)oc(=O)n4C)C2)CC1 (centres undefined)	4	100	-1.1	31	84	i	0.82
Cc1ccc(NC(=O)CCC(=O)NNS(=O)(=O)c2ccccc2)c(C)c1	-11	109	-2.3	nt	nt	i	1.1
CC1=NN(C(=O)c2ccccc2-n2cccc2)C(O)(C(F)(F)F)C1 (centres undefined)	-11	41	-0.5	3	72	i	1.1
Nc1ccc2c(c1)nc(Cc1ccccc1)n2CCO	2	109	nt	nt	nt	i	0.94
O=C(O)c1ccn2c(C(=O)c3ccc(Cl)cc3)c(-c3ccccc3)cc2c1	nt	101	nt	nt	nt	i	0.87
CS(=O)(=O)N1CCN(c2ccc(NC(=O)CSc3nnc(-c4ccco4)o3)cc2)CC1	0	101	nt	nt	nt	i	0.88
COc1ccc(N2CCN(S(=O)(=O)c3cccs3)CC2)cc1	-6	106	-0.7	-500	59	i	0.88
O=C1N/C(=C/c2ccco2)C(=O)N1Cc1ccccc1F	3	102	-0.9	nt	nt	i	1
COc1ccc(CC(=O)NNC(=S)Nc2ccccc2)cc1Cl	-3	99	nt	nt	nt	i	0.94
Cc1ccc(NC(=O)c2c(O)c3ccccc3n(C)c2=O)nc1	-3	93	-1.3	30	98	i	0.92
CCNCc1cc2cc(C)ccc2[nH]c1=O	-3	101	-2.4	32	93	i	0.89
CC(/C=N/NC(=O)Cn1nnc(N)n1)=C\c1ccc(C(C)C)cc1	nt	97	nt	nt	nt	i	0.9
COC(=O)/C=C1\S/C(=N/N=C/c2ccc(Cl)cc2)NC1=O	nt	94	nt	nt	nt	i	1.1
Cc1ccc(S(=O)(=O)Nn2c(C)nnc2-n2nc(C)cc2C)cc1	12	102	-1.9	nt	nt	i	0.91
Fc1ccc(Cn2nnnc2CN2CCN(C3CCCC3)CC2)cc1	2	101	-1.8	-36	161	i	0.97
Cc1cc(C)nc(NC(=O)/C=C/c2ccccc2Cl)c1	-2	101	-0.5	nt	nt	i	1
CCOC(=O)C(NC(=O)c1ccccc1)=C1CCCCC1	5	100	-1.0	65	103	i	0.95
CCCc1cc(C(=O)Nc2sc(C)c(CC)c2C#N)no1	-13	96	-1.4	70*	106*	nt	nt

# One compound at a time, from the list above. Order of values: PKD1 inh | RGS16-Gao | GALR2 ag | INS promoter inh | INS promoter inh cell count | HSV augment | HSV augment primary fold
# CC1=C/C(=N\OC(=O)/C=C/c2ccccc2)C(C)=CC1=O in the list: 6 | 106 | -0.9 | -14 | 124 | i | 0.91
# CN(C)CCCNc1c(C(=O)O)cnc2c1cnn2C in the list: -7 | 95 | -2.2 | -32 | 150 | i | 1.1
# C/C(=N\NC(=O)c1cc(-c2cccnc2)nc2ccccc12)c1ccccc1O in the list: 8 | 98 | -1.1 | 0 | 144 | i | 0.64
# c1ccc2c(c1)ncn2CCN1CCCCC1 in the list: 0 | 93 | -0.7 | -450 | 27 | i | 1.1

# Next entries
mol	PKD1 inh	RGS16-Gao	GALR2 ag	INS promoter inh	INS promoter inh cell count	HSV augment	HSV augment primary fold
Cc1ccc2[nH]c(=O)c(CN(C(=O)c3cccc([N+](=O)[O-])c3)C(C)C)cc2c1	nt	105	nt	nt	nt	i	0.83
C/C(=C\C(=O)c1ccc(Br)cc1)Nc1ccc(Cl)cc1	0	102	-1.4	14	105	i	0.83
Cc1ccccc1NC(=O)C(C)c1ccc(-c2ccccc2)c(F)c1 (centres undefined)	7	102	-0.9	3	168	i	1
CCOC(=O)c1nn(C)c(C)c1Cl	1	104	0.8	8	116	i	0.82
O=C(Nc1ccccc1F)c1ccc(-n2cncn2)nc1	-10	99	-2.0	32	82	nt	nt
Cc1ccc(S(=O)(=O)N(CC(=O)NCCSc2ccccn2)c2ccc(C)c(C)c2)cc1	-10	112	-0.8	-79	89	i	1
CCOC(=O)c1c(C)n(C)c2ccc(O)c(CN(CC)CC)c12	-6	90	-1.0	12	123	i	0.91
COC(=O)c1cc(OC)c(OC)cc1NC(=O)CSc1ccccc1	1	99	-0.4	nt	nt	i	0.93
O=C(/C=C/c1ccccc1[N+](=O)[O-])N1CCCCC1	-5	111	nt	3	140	i	1.1
Cc1cc2oc(C(=O)N(Cc3cccs3)C3CCS(=O)(=O)C3)cc(=O)c2cc1Cl (centres undefined)	nt	92	nt	nt	nt	i	1
CCOC(=O)c1sc(/S(C)=N\S(=O)(=O)c2cccc(Cl)c2)c2c1CCC=C2 (centres undefined)	nt	100	nt	nt	nt	i	1
COC(=O)[C@H](Cc1ccccc1)NC(=O)Nc1ccc(OC)cc1	nt	103	nt	nt	nt	i	0.88
Cc1cccc(Nc2nc(N)c([N+](=O)[O-])c(N3CCOCC3)n2)c1	30	103	1.3	4	151	i	0.88
Cc1cc2cc(CNC(=O)C3CC3)ccc2n1C	4	101	-2.7	nt	nt	i	0.93
CC(O)Cn1c(=O)c2c(nc(Br)n2Cc2ccccc2)n(C)c1=O (centres undefined)	-2	101	-1.1	54	87	i	1.2
O=C1[C@@H]2[C@H](C(=O)N1Cc1cccnc1)[C@H]1C=C[C@@H]2C1	1	102	-1.4	-46	131	i	0.86
COc1cc(S(=O)(=O)NCCN2CCOCC2)ccc1-n1cnnn1	-4	99	nt	nt	nt	i	0.93
CC1=C(C(=O)Nc2ccccn2)C(c2ccc(Cl)cc2)NC(=S)N1 (centres undefined)	0	99	nt	-43	116	i	0.97
O=C(COC(=O)c1ccc(S(=O)(=O)N2CCOCC2)cc1)NCc1cccs1	4	101	nt	5	109	i	0.9
Cn1c(=O)[nH]c(=O)c2c1nc(Br)n2CCSc1ncccn1	-3	108	-0.4	-61	55	i	1.1
CCOC(=O)N1CCN(S(=O)(=O)c2ccc(OCC)cc2)CC1	4	113	-1.2	nt	nt	i	0.83
NC(=S)N=Nc1c(O)n(C2OC(=O)c3ccccc32)c2ccccc12 (centres undefined)	-2	95	-3.0	36	95	nt	nt
COCCN(C)C(=O)CC1C(=O)NCCN1CC(c1ccccc1)c1ccccc1 (centres undefined)	-4	98	nt	-57	96	i	1.2
COc1ccc(N(C(=O)Nc2ccc(Cl)cc2)C2=NCCC2)cc1	-8	98	-1.9	nt	nt	i	0.87
COCC(=O)N1CCCC(C(=O)c2ccc(-c3ccccc3)c(F)c2)C1 (centres undefined)	5	101	nt	nt	nt	i	1.1
S=c1nc(-c2ccccc2)[nH]n1-c1ccccc1	1	94	-0.1	nt	nt	nt	nt
O=C(COC(=O)C1c2ccccc2Oc2ccccc21)NC1CCS(=O)(=O)C1 (centres undefined)	1	96	0.0	-8	157	i	0.89
O=C(C1=C[C@H](C2CCCCC2)C[C@H](OCCCCO)O1)N1CCOCC1	1	99	nt	nt	nt	i	0.89
O=C(c1ccc(-n2cnnn2)cc1)N1CCN(C(c2ccccc2)c2ccccc2)CC1	-5	103	-0.4	nt	nt	i	0.98
CC(=O)Nc1nc(SCC(=O)NCC2CCCO2)[nH]c(=O)c1NC(=O)c1cccs1 (centres undefined)	2	94	nt	nt	nt	i	1
CCOC(=O)C1CCN(Cc2ccc(F)c(Br)c2)CC1	-5	204	-0.7	6	83	i	0.91
Cc1cc(C)n2nc(S(=O)(=O)N(C)c3ccccc3)nc2n1	-3	64	-0.4	nt	nt	i	0.97
CCOC(=O)c1cnc2ccc(F)cc2c1Nc1ccc2c(c1)OCCO2	-3	83	-0.6	nt	nt	i	1.2
COc1ccc(CNC(=O)c2cc(-c3ccccc3O)n[nH]2)cc1	-10	102	-0.9	nt	nt	i	0.91
S=C(NNC(=S)NC1CC2C=CC1C2)NC1CC2C=CC1C2 (centres undefined)	nt	94	nt	nt	nt	i	0.93
Cc1cc(=O)oc2cc(OCC(O)CN3CCc4ccccc4C3)ccc12 (centres undefined)	11	106	-1.2	-71	87	i	0.95
Cn1c(=O)[nH]c(=O)c2c1nc(CN1CCN(c3cccc(Cl)c3)CC1)n2Cc1ccccc1Cl	-5	94	-1.5	-114	56	i	1
O=C(COc1cccc2cccnc12)NNC(=O)Nc1ccccc1	-4	104	nt	14	118	i	0.96

# Compound activity (PubChem)
